Mtb betalactam: beta-lactam sensitization of Mtb H37Rv; AID 434955; M. tuberculosis H37Rv growth with meropenem, percent inhibition; hits of this screen are not shown here; 330,000 compounds, 0.27% hits; inhibition, % at 25 µM;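 active = about 74% or more and at least 40 points above the plate without the antibiotic, then above 30% in a dose series; inconclusive = first-round hits that could not be retested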;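 also: growth measured after seven days incubation then overnight dye step; 0% = bacteria only wells and 100% = bacteria with antibiotic; twin plates without the antibiotic show which effects depend on it; some results filed as inactive read as strong as hits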
YopH PTP inh: inhibitors of Yersinia enterocolitica YopH tyrosine phosphatase. fluorescence Ex485/Em525. AID 898. 140,000 compounds, 0.16% hits. inhibition, %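 (about 10 µM by stock and volumes)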;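 active = inhibition of 50% or more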;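 also: controls were vehicle for no effect and minimum signal wells for full effect; inactives centre near -20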
Mtb growth: M. tuberculosis H37Rv growth inhibitors, H37Rv strain (AID 1626) | one-dose inhibition, % at 10 µM; IC50 in µM for titrated hits | M. tuberculosis H37Rv growth inhibition; higher % means a stronger effect | 220,000 compounds, 0.95% hits;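 active = confirmed in a dose series; inconclusive = inhibition above 80% but not taken into the dose series; inactive = below 80% or under 30% at every dose of the series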;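 also: bacteria incubated seven days before Alamar blue readout; 0% = bacteria only wells and 100% = bacteria with antibiotic wells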
RecA intein inh: blocks M. tuberculosis RecA intein splicing; P9WHJ3; cell-free RecA intein splicing, fluorescence; inhibition, %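 (about 9 µM by stock and volumes)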; 290,000 compounds, 0.75% hits; in the data active = inhibition above about 30%; inconclusive = no clear call, values can overlap the other calls;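 also: 0% = vehicle wells and 100% = reference inhibitor control wells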
Target sequence (P9WHJ3 whole entry, looked up): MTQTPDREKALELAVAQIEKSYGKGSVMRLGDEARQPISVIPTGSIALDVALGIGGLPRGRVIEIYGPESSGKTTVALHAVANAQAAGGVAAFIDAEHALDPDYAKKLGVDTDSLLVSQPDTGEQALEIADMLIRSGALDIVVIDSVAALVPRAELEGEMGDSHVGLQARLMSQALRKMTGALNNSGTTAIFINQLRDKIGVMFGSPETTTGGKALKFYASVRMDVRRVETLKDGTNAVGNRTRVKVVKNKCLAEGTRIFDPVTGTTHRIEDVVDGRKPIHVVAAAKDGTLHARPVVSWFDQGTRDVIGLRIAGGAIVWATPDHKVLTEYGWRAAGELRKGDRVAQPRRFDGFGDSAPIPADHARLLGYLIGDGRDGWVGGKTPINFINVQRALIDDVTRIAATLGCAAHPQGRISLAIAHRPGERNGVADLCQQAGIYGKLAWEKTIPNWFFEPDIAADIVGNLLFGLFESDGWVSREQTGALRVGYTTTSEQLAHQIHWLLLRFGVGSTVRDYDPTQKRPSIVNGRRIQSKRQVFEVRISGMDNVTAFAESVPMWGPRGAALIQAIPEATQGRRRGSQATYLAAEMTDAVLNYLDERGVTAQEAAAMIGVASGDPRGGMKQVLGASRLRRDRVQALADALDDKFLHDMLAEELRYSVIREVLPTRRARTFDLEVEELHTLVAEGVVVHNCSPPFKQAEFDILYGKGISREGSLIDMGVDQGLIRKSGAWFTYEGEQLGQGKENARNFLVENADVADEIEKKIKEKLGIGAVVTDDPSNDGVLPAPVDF
Arbovirus inh: antivirals against arbovirus infection; 200,000 compounds, 0.37% hits; inhibition, % at 10 µM; AID 1251; arbovirus infection cell-based antiviral screen;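 active = inhibition from about 30%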;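 also: bluetongue infection of BSR cells; cell survival read as ATP light after 72 h; 0% = infected wells without compound and 100% = uninfected wells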
Arbovirus inh repeat: second read-out of Arbovirus inh, no call of its own (marks repeat the call); inhibition, %; measured here: 10K subset replicate screen; many hits read low in the repeat;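 first of two repeat runs on a subset; 0% = infected and 100% = uninfected wells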
Active calls of the source: *. Only part of the results is shown; rates above refer to the full screens.

The first 2 entries, ahead of the listing:
Screening Cc1cc(C)cc(-c2nnc(SCC(=O)N3CCN(C(=O)c4ccco4)CC3)o2)c1 returned Mtb betalactam 100, YopH PTP inh -43, Mtb growth inconclusive and Arbovirus inh 0.
Screening O=C1/C(=C/c2ccco2)Oc2c1ccc(O)c2CN1CCCCC1 returned Mtb betalactam 6, YopH PTP inh -21, Mtb growth -7%, RecA intein inh -9.0 and Arbovirus inh 6.

The whole of this part, previewed entries included:
Screening Cc1cc(C)cc(-c2nnc(SCC(=O)N3CCN(C(=O)c4ccco4)CC3)o2)c1 returned Mtb betalactam 100, YopH PTP inh -43, Mtb growth inconclusive and Arbovirus inh 0.
Screening O=C1/C(=C/c2ccco2)Oc2c1ccc(O)c2CN1CCCCC1 returned Mtb betalactam 6, YopH PTP inh -21, Mtb growth -7%, RecA intein inh -9.0 and Arbovirus inh 6.
Screening NC(=S)NC(=O)/C=C/c1ccccc1 returned Mtb betalactam 96, Mtb growth inconclusive and Arbovirus inh 2.
Screening COC(=O)CC1=NN(c2ccc(OC)cc2)C(=O)C1 returned Mtb betalactam 1, Mtb growth 5%, RecA intein inh 72* and Arbovirus inh 1.
Screening Cn1cc(S(=O)(=O)CC(=O)N2CCCc3ccccc32)c2ccccc21 returned Mtb betalactam 1, YopH PTP inh -4, Mtb growth -1%, RecA intein inh 1.1 and Arbovirus inh 4.
`C=CCOc1ccc(C2NC(=O)NC(C)=C2C(=O)OC)cc1` (stereo unspecified) gave Mtb betalactam -5, YopH PTP inh -6, Mtb growth -11%, RecA intein inh 0.6 and Arbovirus inh 5.
Screening O=C(Nc1ccc(F)cc1)C1CC(=O)n2ncnc2N1 (stereo unspecified) returned Mtb betalactam -1, Mtb growth 2%, RecA intein inh -1.9 and Arbovirus inh 21.
For O=C(c1cccc(S(=O)(=O)Nc2ccccc2Cl)c1)N1CCCCCC1 the results were Mtb betalactam -3 and RecA intein inh 0.1.
Cc1cc(C)n(C2CCCCC2OC(=O)c2ccccc2)n1 (stereo unspecified) was read as Mtb betalactam -13, YopH PTP inh -3, Mtb growth 2%, RecA intein inh 4.4 and Arbovirus inh -1.
`COc1ccc(-c2noc(N3CCC(C(=O)NCc4ccccc4Cl)CC3)n2)cc1` gave Mtb betalactam 0 and RecA intein inh -1.2.

The closing four records of the part above lead into the next:
Screening O=C(Nc1ccc(F)cc1)C1CC(=O)n2ncnc2N1 (stereo unspecified) returned Mtb betalactam -1, Mtb growth 2%, RecA intein inh -1.9 and Arbovirus inh 21.
For O=C(c1cccc(S(=O)(=O)Nc2ccccc2Cl)c1)N1CCCCCC1 the results were Mtb betalactam -3 and RecA intein inh 0.1.
Cc1cc(C)n(C2CCCCC2OC(=O)c2ccccc2)n1 (stereo unspecified) was read as Mtb betalactam -13, YopH PTP inh -3, Mtb growth 2%, RecA intein inh 4.4 and Arbovirus inh -1.
`COc1ccc(-c2noc(N3CCC(C(=O)NCc4ccccc4Cl)CC3)n2)cc1` gave Mtb betalactam 0 and RecA intein inh -1.2.
Cc1cccc(NC(=O)NCc2ccc3[nH]c(C)cc3c2)c1 was read as Mtb betalactam -11, Mtb growth 5%, RecA intein inh 4.2 and Arbovirus inh -10.
Nc1nc(N)c2c(ccc3nccc32)[nH]1 was read as Mtb betalactam 0, Mtb growth -2% and RecA intein inh 18.
For CCCNC(=O)NCCc1c(C)[nH]c2ccccc12 the results were Mtb betalactam -1, YopH PTP inh -17, Mtb growth 2%, RecA intein inh -1.0, Arbovirus inh 3 and Arbovirus inh repeat 3.
Cc1c(NC(=O)Nc2cccc(F)c2)c(=O)n(-c2ccccc2)n1C was read as Mtb betalactam 0 and RecA intein inh -0.4.
For COc1ccc(-c2nn(-c3ccccc3)cc2/C=N/NC(=O)c2ccc(Br)o2)cc1 the results were Mtb betalactam 88, YopH PTP inh -18, Mtb growth 12%, RecA intein inh 3.3 and Arbovirus inh -16.
Screening CC(C)c1ccc(O)c(NC(=S)NC(=O)c2cccnc2)c1 returned Mtb betalactam 97, Mtb growth inconclusive, RecA intein inh 1.2 and Arbovirus inh -12.
For CCCCNS(=O)(=O)c1ccc(NC(=O)Cc2ccc(OC)cc2)cc1 the results were Mtb betalactam -6, Mtb growth 2%, RecA intein inh -1.7 and Arbovirus inh 9.
For Cc1cccc(N=Nc2c(O)[nH]c3ccc(Br)cc23)c1 the results were Mtb betalactam 1 and RecA intein inh -0.8.
O=C1c2ccccc2C(=O)N1CCCCSc1nc2ccccc2o1 was read as Mtb betalactam 2, YopH PTP inh -5, Mtb growth 12%, RecA intein inh 9.6 and Arbovirus inh 11.
Screening Cc1nnc(SC(C(=O)c2ccccc2)c2ccccc2)[nH]c1=O (stereo unspecified) returned Mtb betalactam -7, Mtb growth -8% and RecA intein inh 4.5.
Screening O=C(CN1CCOCC1)Nc1scc2c1c(=O)oc1ccccc12 returned Mtb betalactam -6, Mtb growth 1% and RecA intein inh 1.4.
O=C(Cc1ccc(Br)cc1)N1CCOCC1 was read as Mtb betalactam 4 and RecA intein inh 0.9.
For CCOc1ccc(-n2c(SCC(=O)Nc3nccs3)nnc2-c2ccoc2C)cc1 the results were Mtb betalactam -9 and RecA intein inh -3.2.
O=c1[nH]n(-c2ccc(Cl)cc2)c(=O)c(Cl)c1Cl was read as Mtb betalactam 64, YopH PTP inh -29, Mtb growth 78%, RecA intein inh 11 and Arbovirus inh 3.
`CC1CC(C)CN(C(=O)CSc2nc3ccsc3c(=O)n2Cc2ccccn2)C1` (stereo unspecified) gave Mtb betalactam -10, YopH PTP inh 1, Mtb growth 3%, RecA intein inh -8.8 and Arbovirus inh 0.
Screening CN(C)c1ccc(/C=N/Nc2cc(N3CCOCC3)nc(N3CCOCC3)n2)cc1 returned Mtb betalactam -6, Mtb growth 5%, RecA intein inh -5.7 and Arbovirus inh -4.
`O=C(COc1ccc(Cl)cc1)NNC(=O)C(=O)N1CCCCC1` gave YopH PTP inh -37, Mtb growth -13%, RecA intein inh 0.5 and Arbovirus inh 0.
For CC1(C)CCN(Cc2ccccc2)C1CC#N (stereo unspecified) the results were Mtb betalactam -9, YopH PTP inh -34, Mtb growth -2%, RecA intein inh -1.3 and Arbovirus inh 5.
For Cc1ccc(Nc2cccc(C(F)(F)F)c2)nn1 the results were Mtb betalactam -3 and RecA intein inh 4.0.
Screening Cc1ccc2c(CN3CC(C)CC(C)C3)cc(=O)oc2c1C (stereo unspecified) returned Mtb betalactam 2 and RecA intein inh -0.5.
`COC(=O)c1[nH]c2ccc(F)cc2c1NC(=O)CCN1CCN(Cc2ccc3c(c2)OCO3)CC1` gave YopH PTP inh -42, Mtb growth 5% and Arbovirus inh 11.
`Cc1ccnc(NC(=O)CCC(=O)N(CC(=O)NC2CCCCC2)Cc2cccs2)c1` gave Mtb betalactam 0, Mtb growth 0%, RecA intein inh -1.1 and Arbovirus inh -4.
Screening CCOc1ccc(CCNC(=O)C(C)n2nc(C)n3c(cc4occc43)c2=O)cc1OCC (stereo unspecified) returned Mtb betalactam -13, YopH PTP inh -21, Mtb growth -5%, RecA intein inh 0.6 and Arbovirus inh 9.
`CC(NC(=O)c1cc2ccccc2oc1=O)c1ccc(O)cc1` (stereo unspecified) gave Mtb betalactam -5 and RecA intein inh 1.9.
Screening Nc1nc(N)c(Cc2ccc(Cl)cc2Cl)c(N)n1 returned Mtb betalactam -2, Mtb growth 6%, RecA intein inh 0.3 and Arbovirus inh 1.
Screening COC(=O)CNC(=O)CN1C(=O)N(c2ccccc2)C(N(O)C(=O)Nc2ccccc2)C1(C)C (stereo unspecified) returned Mtb betalactam -8, YopH PTP inh -3, Mtb growth 1%, RecA intein inh -1.4 and Arbovirus inh 2.
Screening CCOC(=O)C1=C(c2ccccc2)N=c2s/c(=C\c3cc(OC)c(OC)c(OC)c3)c(=O)n2C1c1cccs1 (stereo unspecified) returned Mtb betalactam 30, YopH PTP inh -24, Mtb growth -3%, RecA intein inh -9.2 and Arbovirus inh -14.
`COc1cc2c(cc1OC)CN(C(=O)/C=C/c1ccc(F)cc1)CC2` gave Mtb betalactam 5 and RecA intein inh 2.3.
Screening COc1ccccc1OCC(=O)O/N=C(\N)c1ccccn1 returned Mtb betalactam 0, Mtb growth 2% and RecA intein inh -2.7.
For COc1ccc(C(=O)N2CCC(=O)N(C(CO)Cc3ccccc3)CC2)cc1 (stereo unspecified) the results were Mtb betalactam -3, YopH PTP inh -13, Mtb growth 0%, RecA intein inh -0.5 and Arbovirus inh 7.
`NNC(=O)c1cccc(COc2ccc(Br)cc2)c1` gave Mtb betalactam 0, YopH PTP inh -15, Mtb growth -3%, RecA intein inh 21 and Arbovirus inh -17.
COC(=O)c1sccc1NC(=O)/C=C/C(=O)O was read as Mtb betalactam 5, Mtb growth 4%, RecA intein inh -0.1 and Arbovirus inh 0.
For CCCCN(C)C(=O)C1CCN(Cc2cccc(OCc3ccccc3)c2)CC1 the results were Mtb betalactam -5 and RecA intein inh -0.6.
CCOC(=O)C(/C=C(\C#N)C(=O)OCC)=C(/N)N1CCN(c2ccc(OC)cc2)CC1 was read as Mtb betalactam -8, YopH PTP inh 1, Mtb growth 7%, RecA intein inh 1.0 and Arbovirus inh -3.
Screening CN(C)S(=O)(=O)c1ccc(C(=O)Nc2ccc(CN3CCCC3)cc2)cc1 returned Mtb betalactam -14, YopH PTP inh -4, Mtb growth -1%, RecA intein inh -4.6 and Arbovirus inh -8.
`COc1ccc(-c2nc(-c3cccc([N+](=O)[O-])c3O)cc(=O)o2)cc1OC` gave Mtb betalactam -6, YopH PTP inh 13, Mtb growth -6%, RecA intein inh -0.5 and Arbovirus inh -4.
`Oc1cccc(/C=N/N2CCN(c3ccccn3)CC2)c1` gave Mtb betalactam -7, Mtb growth 0% and RecA intein inh -1.7.
CN(C)S(=O)(=O)n1cc(/C=C(\NC(=O)c2ccccc2F)C(=O)N2CCCC2)c2ccccc21 was read as Mtb betalactam -6 and RecA intein inh 4.5.
CCOc1ccccc1NC(=O)COC(=O)C1CC1 was read as Mtb betalactam 73, Mtb growth 1%, RecA intein inh 0.0 and Arbovirus inh 4.
Screening C=CCn1c(SCC(=O)Nc2ccccc2C)nc2sc(C)c(C)c2c1=O returned Mtb betalactam -3, YopH PTP inh -10, Mtb growth 1%, RecA intein inh 5.5 and Arbovirus inh -3.
Screening COC(=O)c1sc(NC(=O)c2ccc(Cn3cc(Cl)cn3)o2)c(C#N)c1C returned Mtb betalactam 84, YopH PTP inh -43, Mtb growth -6%, RecA intein inh -3.0 and Arbovirus inh 8.
Screening O=C(COC(=O)CCCN1C(=O)c2cccc3cccc(c23)C1=O)Nc1cccc(C(F)(F)F)c1 returned Mtb betalactam -8, YopH PTP inh -33, Mtb growth -2%, RecA intein inh -0.8 and Arbovirus inh -4.
CCc1cccc2c(C(=O)CSc3nnc(-c4ccncc4)n3C)c[nH]c12 was read as Mtb betalactam -3, YopH PTP inh -28, Mtb growth -1%, RecA intein inh 0.5 and Arbovirus inh 5.
Screening COc1ccc2c(c1)CCc1c(C(=O)NCc3ccc(Cl)cc3)noc1-2 returned Mtb betalactam 0, YopH PTP inh -5, Mtb growth -3%, RecA intein inh 0.9 and Arbovirus inh -3.
For O=C(C[N+]12CCC(CC1)C(CO)C2)c1ccc(Br)cc1 (stereo unspecified) the results were Mtb betalactam -3 and RecA intein inh -1.0.
For CCC(=O)Nc1nnc(-c2ccco2)o1 the results were Mtb betalactam 3, YopH PTP inh -38, Mtb growth 10%, RecA intein inh -0.9, Arbovirus inh 3 and Arbovirus inh repeat 2.
For CC1CN(S(=O)(=O)c2ccc(NC(=O)CCN3C(=O)c4ccccc4C3=O)cc2)CC(C)O1 (stereo unspecified) the results were Mtb betalactam -1, YopH PTP inh -54, RecA intein inh 4.2 and Arbovirus inh 6.
For O=C(CSc1nc2ccccc2c(=O)n1CCCN1CCOCC1)Nc1ccc2c(c1)OCO2 the results were Mtb betalactam 7, Mtb growth -6%, RecA intein inh -1.4 and Arbovirus inh -2.
Screening CCCSc1nc(C)c2cc(C)cc(C)c2n1 returned Mtb betalactam 0, YopH PTP inh -5, Mtb growth 2%, RecA intein inh 0.3 and Arbovirus inh 7.
Screening COc1cc(CC(=O)Nc2nc(-c3ccc(F)c(F)c3)cs2)cc(OC)c1OC returned Mtb betalactam 3 and RecA intein inh 2.0.
`CC[n+]1c(C)n(-c2ccccc2)c2ccc(NC(C)=O)cc21` gave Mtb betalactam -4, Mtb growth 6%, RecA intein inh -7.1 and Arbovirus inh 7.
CCOc1ccc(S(=O)(=O)NCc2ccccc2Cl)cc1C(N)=O was read as Mtb betalactam 23, Mtb growth 4%, RecA intein inh -2.1 and Arbovirus inh 11.
For CC(C)(C)[C@@H]1CCC(=O)N(CC[C@H](N=[N+]=[N-])c2ccccc2)CC1 the results were Mtb betalactam -2 and RecA intein inh 4.5.
